HNF4A DNA FP: change in binding of human HNF4 alpha to DNA; HNF4a-FITC DNA binding, fluorescence polarization, 1 h; AID 1224865; P41235; hit rate 0.3% among 360,000; activity change, % at 10 µM; in the data active = activity change above about 30%, passing the limit was not always enough;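 also: controls were the assay level and a saturating level of protein; the project sought stronger binding though the title names inhibitors; some compounds called inactive have numbers as strong as hits; positive values seem to mean higher polarization but the record does not say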
FGF22 binding: FGF22 (human) thermal shift binding; calls only at 9.99 µM; hit rate 1.5% among 340,000; recombinant FGF22 thermal shift, SYPRO orange fluorescence; percent of sucrose octasulfate shift, DMSO zero; Q9HCT0;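 active = melting point raised past a set limit in the mean and every replicate; inconclusive = no clear call; three in four hits are not shown here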
Target sequence (Q9HCT0 whole entry, looked up): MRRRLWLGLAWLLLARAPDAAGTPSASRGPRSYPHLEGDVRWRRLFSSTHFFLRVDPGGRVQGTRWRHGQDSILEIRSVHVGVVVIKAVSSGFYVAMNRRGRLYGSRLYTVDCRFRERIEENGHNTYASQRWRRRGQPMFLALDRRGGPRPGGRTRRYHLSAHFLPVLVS
MLL AF4-AF9 inh: inhibitors of human MLL-AF4/AF9 interaction. hit rate 0.47% among 350,000. AlphaScreen, biotin-AF4 peptide binding to FLAG-AF9. inhibition, % at 10 µM. P42568;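 active = every replicate reaching a set inhibition limit, whatever the replicate mean, cut at about 25% in these data; inconclusive = mean inhibition reaches that limit but some replicates miss it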;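 also: 0% = plate neutral control median and 100% = total signal loss; the record names both 10 and 1 µM as test concentration; the first replicate is given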
Target sequence (P42568 whole entry, looked up): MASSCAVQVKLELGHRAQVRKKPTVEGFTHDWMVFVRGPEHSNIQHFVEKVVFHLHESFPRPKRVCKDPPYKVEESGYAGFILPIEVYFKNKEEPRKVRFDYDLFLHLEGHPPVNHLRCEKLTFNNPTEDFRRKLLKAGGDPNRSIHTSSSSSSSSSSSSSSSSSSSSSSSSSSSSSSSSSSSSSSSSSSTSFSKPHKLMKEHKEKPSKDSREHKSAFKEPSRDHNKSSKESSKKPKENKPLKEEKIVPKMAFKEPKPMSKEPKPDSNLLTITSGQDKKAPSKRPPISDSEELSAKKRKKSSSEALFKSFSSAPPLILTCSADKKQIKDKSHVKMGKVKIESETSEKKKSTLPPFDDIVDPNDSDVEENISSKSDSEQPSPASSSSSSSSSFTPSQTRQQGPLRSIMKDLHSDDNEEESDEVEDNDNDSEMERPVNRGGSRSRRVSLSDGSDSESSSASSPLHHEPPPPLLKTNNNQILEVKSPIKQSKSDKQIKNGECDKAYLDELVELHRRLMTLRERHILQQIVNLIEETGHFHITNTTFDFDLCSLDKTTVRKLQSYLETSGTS
E coli growth: inhibitors of Escherichia coli growth. OD600, 23 h; hits give low values. OD600 absorbance (test concentration not listed). hit rate 0.21% among 330,000. AID 1053175;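 active = OD600 absorbance below the run mean of sample wells minus 3.6 SD, in any replicate, cut at about 0.56 in these data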;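 also: stock transfer was 300 nL into about 60 µL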
Vif A3G: HIV-1 Vif–A3G interaction blockers – biochemical, TR-FRET, GST-Vif 1-94, biotin-A3G peptide, dose response retest, primary screen (AID 1117319); TR-FRET GST-Vif / biotin-A3G peptide binding; higher % means a stronger effect; test concentration not given here; strong numbers were not always called active; hit rate 0.57% among 260,000; inhibition, %; hits with a dose series show IC50 in µM;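 active = above the screen mean plus three standard deviations and confirmed in dose response; inconclusive = results disagree or hit not tested in dose response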;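 also: Vif residues 1-94 fused to GST binding biotinylated APOBEC3G peptide 110-148; 0% = full assay without inhibitor and 100% = GST in place of GST-Vif; retest series ran down from 100 µM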
rRNA inh HTS: selective bacterial rRNA inhibition in E. coli; E. coli WT GFP vs humanized-ribosome RFP mutants, fluorescence, 24 h; hits give low values; DMSO median 0, no signal -100; GFP signal change (wild-type ribosome), % (test concentration not listed); hit rate 1.6% among 350,000;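 active = significant combined selectivity score with lowered wild-type GFP, culture density cut under 30%, mutant RFP and density less affected; inactive = any of these conditions unmet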; also: one replicate is shown; some compounds called inactive have numbers as strong as hits
ALR H2O2 inh: blocks human ALR sulfhydryl oxidase activity | P55789 | purified ALR, DTT oxidation, H2O2 HRP-luminol luminescence | inhibition, % (test concentration not listed) | hit rate 3.8% among 290,000 | AID 485317;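 active = mean and each replicate at 75% or more; inconclusive = only one of the two met; inactive = neither met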;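 also: stock transfer was 7.5 nL into about 7.5 µL; 0% = neutral wells and 100% = wells with inactivated enzyme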
Target sequence (P55789 whole entry, looked up): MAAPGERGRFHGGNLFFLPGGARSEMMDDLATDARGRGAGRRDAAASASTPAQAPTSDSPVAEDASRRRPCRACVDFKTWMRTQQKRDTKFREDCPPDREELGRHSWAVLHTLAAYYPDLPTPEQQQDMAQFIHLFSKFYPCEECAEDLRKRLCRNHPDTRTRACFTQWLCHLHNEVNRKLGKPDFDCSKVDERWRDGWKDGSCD
rRNA inh HTS OD600: recorded beside rRNA inh HTS, whose call it bears; OD600 change, %; measured here: OD600 growth;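 optical density of the mix in the first replicate; 0 = DMSO median and -100 = no signal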
rRNA inh HTS RFP: also measured in rRNA inh HTS; calls as there; RFP signal change, %; measured here: RFP humanized mutant strains;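 first replicate; 0 = DMSO median and -100 = no signal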
The depositor's hits bear a star; i = inactive; ? = inconclusive; . = no result given; & = joins results of further samples. The list is partial, so the mix of outcomes need not match the whole.

nr	Structure	E coli growth	HNF4A DNA FP	ALR H2O2 inh	rRNA inh HTS OD600	rRNA inh HTS	FGF22 binding	MLL AF4-AF9 inh	rRNA inh HTS RFP	Vif A3G
1	Cn1c(=O)c2c(ncn2CC(=O)Nc2nc3ccc(F)cc3s2)n(C)c1=O	0.7	-0.4	99*	.	.	.	.	.	0%
2	C[C@@H]1CN([C@@H](C)CO)C(=O)Cc2cc(NC(=O)CCCCCC(=O)Nc3ccccc3N)ccc2O[C@H]1CN(C)C(=O)Nc1ccc(F)cc1	.	.	.	-4	3	i	-0.9	-2.8	.
3	C#Cc1cc(N2CCN(C(=O)c3ccoc3)CC2)n2nc(-c3cccc(Cl)c3)cc2n1	.	12	.	11	-9	.	-10	6.8	.
4	CCC(=O)Nc1ccc(N2CCOCC2)c(S(=O)(=O)Nc2ccc(OC)cc2)c1	0.68	-3.9	-18	0	-3	i	0.5	2.0	.
5	COc1ccc(-n2c(COc3ccc4ccccc4c3)nnc2SCC(=O)NCc2ccco2)cc1	0.69	3.9	-13	-29	-25	i	-8.1	36	-1%
6	COc1ccc(N2CCN(C(=S)Nc3cc(C)ccc3C)CC2)cc1	0.73	1.9	8	14	-6	i	-4.4	-1.9	0%
7	Cn1c(=O)n(Cc2ccc(F)cc2)c(=O)c2c1nc1n2CCN1Cc1ccco1	0.69	-3.7	.	3	9	i	-1.9	-1.4	-5%
8	O=C(Nc1ccccc1)N1CCCCN2[C@@H](CO)[C@@H](c3ccc(-c4ccccc4)cc3)[C@@H]2C1	.	.	.	-46	-16	i	-1.5	30	.
9	N#Cc1ccc(Cn2c(=O)oc3ccccc32)cc1	0.66	-0.9	-4	5	9	i	-1.2	5.1	-8%
10	CN1CCN(c2ccccc2/C=N/NC(=O)c2cccnc2)CC1	.	-2.4	-5	-1	7	i	1.3	-0.5	3%
11	COc1ccc(S(=O)(=O)N(C)C[C@H]2Oc3c(NC(=O)C4CCCCC4)cccc3C(=O)N([C@@H](C)CO)C[C@H]2C)cc1	.	.	.	-5	-4	i	3.9	-2.1	.
12	CCCCn1c2ccccc2c2nnc(SCC(=O)NC3=NN=C(c4ccccc4)CS3)nc21	.	.	39	4	14	i	-1.6	2.6	.
13	CCCCn1c(=O)n(CC(=O)NCc2ccc(C)cc2)c(=O)c2c1nc(CO)n2CCC	0.72	-0.3	-4	.	.	.	.	.	-7%&5%
14	Cc1cc(NC(=O)CSc2nnc3ccc(-c4ccc(F)cc4)nn23)no1	0.61	2.6	-21	15	5	i	-0.4	0.0	3%
15	CCOc1ccc(NC(=O)CCn2ccnc2)cc1	0.7	-2.6	.	18	15	i	3.7	-0.1	-2%
16	COc1c(F)c(F)c(C(=O)O)c(Nc2ccc(C)cc2C)c1F	0.69	-3.0	97*	-33	-26	.	-3.0	-3.5	13%

Compounds 9–16, quoted:
nr	Structure	E coli growth	HNF4A DNA FP	ALR H2O2 inh	rRNA inh HTS OD600	rRNA inh HTS	FGF22 binding	MLL AF4-AF9 inh	rRNA inh HTS RFP	Vif A3G
9	N#Cc1ccc(Cn2c(=O)oc3ccccc32)cc1	0.66	-0.9	-4	5	9	i	-1.2	5.1	-8%
10	CN1CCN(c2ccccc2/C=N/NC(=O)c2cccnc2)CC1	.	-2.4	-5	-1	7	i	1.3	-0.5	3%
11	COc1ccc(S(=O)(=O)N(C)C[C@H]2Oc3c(NC(=O)C4CCCCC4)cccc3C(=O)N([C@@H](C)CO)C[C@H]2C)cc1	.	.	.	-5	-4	i	3.9	-2.1	.
12	CCCCn1c2ccccc2c2nnc(SCC(=O)NC3=NN=C(c4ccccc4)CS3)nc21	.	.	39	4	14	i	-1.6	2.6	.
13	CCCCn1c(=O)n(CC(=O)NCc2ccc(C)cc2)c(=O)c2c1nc(CO)n2CCC	0.72	-0.3	-4	.	.	.	.	.	-7%&5%
14	Cc1cc(NC(=O)CSc2nnc3ccc(-c4ccc(F)cc4)nn23)no1	0.61	2.6	-21	15	5	i	-0.4	0.0	3%
15	CCOc1ccc(NC(=O)CCn2ccnc2)cc1	0.7	-2.6	.	18	15	i	3.7	-0.1	-2%
16	COc1c(F)c(F)c(C(=O)O)c(Nc2ccc(C)cc2C)c1F	0.69	-3.0	97*	-33	-26	.	-3.0	-3.5	13%

2 entries from above, screen by screen:
[9] N#Cc1ccc(Cn2c(=O)oc3ccccc32)cc1
[10] CN1CCN(c2ccccc2/C=N/NC(=O)c2cccnc2)CC1
assay / compound	9	10
E coli growth	0.66	.
HNF4A DNA FP	-0.9	-2.4
ALR H2O2 inh	-4	-5
rRNA inh HTS OD600	5	-1
rRNA inh HTS	9	7
FGF22 binding	i	i
MLL AF4-AF9 inh	-1.2	1.3
rRNA inh HTS RFP	5.1	-0.5
Vif A3G	-8%	3%

The listing continues.
nr	Structure	E coli growth	HNF4A DNA FP	ALR H2O2 inh	rRNA inh HTS OD600	rRNA inh HTS	FGF22 binding	MLL AF4-AF9 inh	rRNA inh HTS RFP	Vif A3G
17	CSCc1ccc(C(=O)NC(C)c2cnn(-c3ccccn3)c2C)o1 (configuration not stated)	0.71	2.0	90*	-9	-5	i	-1.6	0.0	4%
18	COc1ccc2c3c(n(C)c2c1)[C@@H](CO)N(C(=O)Nc1ccc(F)cc1)CC31CCN(C(=O)NC(C)C)CC1	.	.	.	-14	-3	i	1.2	-1.8	.
19	COc1ccc(NC(=S)NCCc2ccc(F)cc2)c(OC)c1	0.7	4.8	.	-1	1	i	-3.7	-1.7	.
20	CN(C(=O)COC(=O)c1cccc(Cl)c1)C1CCS(=O)(=O)C1 (configuration not stated)	0.69	-1.1	-2	16	8	i	3.6	-3.7	7%
21	CCN1CCN(S(=O)(=O)c2ccc(Cl)c(C(=O)N(C)Cc3ccc(F)cc3)c2)CC1	0.65	-0.6	-3	-3	0	i	-4.8	-1.1	-9%
22	Cc1ccc(C(=O)C(C)Oc2cccc(NC(=O)c3ccco3)c2)cc1 (configuration not stated)	0.68	-0.8	.	.	.	.	.	.	6%
23	COc1cccc(C2=CC(=O)C[C@H](c3ccc4c(c3)OCO4)C2)c1	0.76	-3.9	-1	.	.	.	.	.	.
24	Cc1ccc(NC(=O)c2cnn(-c3ccccc3)c2C)c(C)c1	0.66	-3.6	3	-4	-9	i	0.1	-0.4	.
25	COc1ccc(S(=O)(=O)Nc2ccc3c(c2)C(=O)N([C@@H](C)CO)C[C@@H](C)[C@H](CN(C)Cc2ccc(Cl)c(Cl)c2)O3)cc1	.	.	.	-7	0	i	3.3	2.6	.
26	COc1ccc(S(=O)(=O)N2CCN(Cc3cccc(OC)c3)CC2)cc1	0.65	-0.3	-1	-18	-20	i	1.5	-1.5	10%
27	Cc1ccc2cccc(OCC(=O)N3CCc4ccccc43)c2n1	0.71	-0.2	.	0	-1	i	0.5	-1.6	-16%
28	CCOC(=O)c1ccc(NC(=O)C2(c3ccccc3)CCOCC2)cc1	0.75	-3.1	-1	.	.	.	.	.	-6%
29	COc1ccc(Cl)cc1NC(=O)NCc1ccco1	0.69	-3.3	-13	0	-1	i	-1.3	-0.4	-16%
30	CCCCNC(=O)CS(=O)Cc1nc(-c2ccc(C)cc2)oc1C (configuration not stated)	0.72	-0.9	99*	-30	5	i	0.0	-7.8	4%
31	O=C(CN1CCc2ccccc21)NC(=O)NCc1ccccc1	0.68	-1.5	-5	-7	-2	i	3.6	0.5	-4%
32	COc1ccc(S(=O)(=O)Nc2cccc3c2O[C@H](CN(C)Cc2ccc(-c4ccccc4)cc2)[C@@H](C)CN([C@H](C)CO)C3=O)cc1	0.77	-0.5	1	12&4	0&-5	i	2.9&3.3	-3.4&-6.8	.
33	COc1ccc(Cl)cc1N/C(N)=N/c1nc(C)cc(=O)[nH]1	0.65	-0.1	-1	-2	14	i	2.4	3.2	10%
34	CCC(=O)NC(c1ccc(OC)c(OC)c1)c1cc(Cl)c2cccnc2c1O (configuration not stated)	0.65	1.5	.	.	.	i	-1.3	.	26%
35	C[C@@H]1CN([C@@H](C)CO)C(=O)c2cccc(NC(=O)Nc3ccc(F)cc3)c2O[C@H]1CN(C)Cc1ccc(-c2ccccc2)cc1	.	.	.	-3	-8	i	7.8	-0.4	.
36	Cn1cc(C=O)c2cc(F)ccc21	0.62	-2.4	-7	-24	11	i	-1.9	48	.
37	C[n+]1cn(/N=C/c2ccccc2)c2ccccc21	.	2.0	36	.	.	.	.	.	-1%
38	CCC(C)N(C(=O)CSc1nc2ccc(OC)cc2[nH]1)C1CCS(=O)(=O)C1 (configuration not stated)	0.66	2.9	0	9	5	.	1.5	-2.6	-6%
39	CCC(=O)Nc1ccc2c(c1)C(=O)N(C)[C@H]1CC[C@@H](CC(=O)NCc3ccccc3Cl)O[C@@H]1CO2	.	.	.	3	-1	i	-2.3	-1.7	.
40	COc1ccc(NC(=O)Cc2ccc(C)cc2)c([N+](=O)[O-])c1	0.71	-2.9	-26	.	.	.	.	.	4%
41	CC1(c2nc3ccccc3[nH]2)c2ccccc2C(=O)N1C1CC1 (configuration not stated)	.	-0.5	.	7	9	i	-1.3	-0.8	.
42	O=C(CCC(=O)N1CCSc2ccccc21)NCCc1ccccc1	0.74	2.8	-33	-23	1	i	?	-1.3	.
43	CC(=O)Nc1ccn(-c2ccccc2)n1	0.7	-0.3	-203	.	.	.	.	.	16%
44	Cc1cc(NC(=O)CC(C)C)c(=O)n(Cc2c(F)cccc2Cl)c1	0.66	3.9	.	16	10	i	4.1	2.3	.
45	CCCC1=NN(c2ccc([N+](=O)[O-])cc2)C(=O)/C1=C\N(C)C	0.66	-1.2	6	.	.	i	-1.9	.	.
46	Cc1cc2ncn(C(=O)N3CCOCC3)c2cc1C	0.73	1.9	-3	.	.	.	.	.	67%
47	CCOC(CNc1c([N+](=O)[O-])c(=O)n(C)c(=O)n1C)OCC	0.65	1.9	-1	.	.	.	.	.	-2%
48	COc1ncnc2sc3c(c12)CCCC3	0.72	-1.2	-6	.	.	.	.	.	-5%
49	CCO/C(C)=C1/SC(=S)NC1=O	0.68	18	15	9	0	i	1.6	4.3	?
50	O=C(C[C@H]1CC[C@@H]2[C@H](COC[C@@H](O)CN2C(=O)Nc2ccc(F)cc2)O1)NCCc1ccccc1	.	.	.	5	0	i	0.5	1.4	.
51	COC(=O)C(O)(CC(=O)Nc1ccc(C)c(F)c1)C(F)(F)F (configuration not stated)	0.64	-2.4	6	.	.	.	.	.	-2%
52	COC(=O)C(C)N(C(=O)c1cccc2ccccc12)c1c(C)cccc1C (configuration not stated)	0.68	3.5	-8	.	.	.	.	.	5%
53	C[C@@H]1CN([C@H](C)CO)C(=O)c2cc(/C=C/c3ccccc3)cnc2O[C@H]1CN(C)Cc1ccc2c(c1)OCO2	.	.	.	-10	6	i	9.5	5.3	.
54	COc1ccc(OC)c(S(=O)(=O)N2CCC(C(=O)NCCC3=CCCCC3)CC2)c1	0.65	1.1	.	.	.	.	.	.	26%

Compound activity as filed in PubChem.
